FGF22 binding: shifts melting point of recombinant human FGF22; Q9HCT0; recombinant FGF22 thermal shift, SYPRO orange fluorescence; percent of sucrose octasulfate shift, DMSO zero; calls only at 9.99 µM; 340,000 compounds, 1.5% hits; AID 651658;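 active means melting point raised past a set limit in the mean and every replicate; inconclusive means no clear call; three in four hits are not shown here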
Target sequence (Q9HCT0 whole entry, looked up): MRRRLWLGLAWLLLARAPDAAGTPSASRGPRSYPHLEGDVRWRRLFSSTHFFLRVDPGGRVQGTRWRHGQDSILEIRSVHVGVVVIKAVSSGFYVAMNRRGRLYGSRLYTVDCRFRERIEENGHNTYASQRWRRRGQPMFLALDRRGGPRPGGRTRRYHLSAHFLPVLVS
E coli growth: inhibitors of Escherichia coli growth. 330,000 compounds, 0.21% hits. OD600, 23 h; stronger effect = lower value. AID 1053175. OD600 absorbance (concentration not given with the values);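 active means OD600 absorbance below the run mean of sample wells minus 3.6 SD, in any replicate, cut at about 0.56 in these data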;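 further: stock transfer was 300 nL into about 60 µL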
HNF4A DNA FP: change in binding of human HNF4 alpha to DNA; P41235; HNF4a-FITC DNA binding, fluorescence polarization, 1 h; activity change, % at 10 µM; 360,000 compounds, 0.3% hits; AID 1224865; in the data active means activity change above about 30%, passing the limit was not always enough;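 further: controls were the assay level and a saturating level of protein; the project sought stronger binding though the title names inhibitors; some compounds called inactive have numbers as strong as hits; positive values seem to mean higher polarization but the record does not say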
Vif TR-FRET: HIV-1 Vif–A3G interaction blockers – biochemical, TR-FRET, GST-Vif 1-94, biotin-A3G peptide, dose response retest, primary screen (AID 1117319). TR-FRET GST-Vif / biotin-A3G peptide binding; higher % means a stronger effect; test concentration not given here; strong numbers were not always called active. inhibition, %; hits with a dose series show IC50 in µM. 260,000 compounds, 0.57% hits;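 active means above the screen mean plus three standard deviations and confirmed in dose response; inconclusive means results disagree or hit not tested in dose response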;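 further: Vif residues 1-94 fused to GST binding biotinylated APOBEC3G peptide 110-148; 0% = full assay without inhibitor and 100% = GST in place of GST-Vif; retest series ran down from 100 µM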
MLL AF4-AF9 inh: MLL-AF4/AF9 protein interaction inhibition | P42568 | AlphaScreen, biotin-AF4 peptide binding to FLAG-AF9 | inhibition, % at 10 µM | 350,000 compounds, 0.47% hits | AID 651704;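 active means every replicate reaching a set inhibition limit, whatever the replicate mean, cut at about 25% in these data; inconclusive means mean inhibition reaches that limit but some replicates miss it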;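 further: 0% = plate neutral control median and 100% = total signal loss; the record names both 10 and 1 µM as test concentration; the first replicate is given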
Target sequence (P42568 whole entry, looked up): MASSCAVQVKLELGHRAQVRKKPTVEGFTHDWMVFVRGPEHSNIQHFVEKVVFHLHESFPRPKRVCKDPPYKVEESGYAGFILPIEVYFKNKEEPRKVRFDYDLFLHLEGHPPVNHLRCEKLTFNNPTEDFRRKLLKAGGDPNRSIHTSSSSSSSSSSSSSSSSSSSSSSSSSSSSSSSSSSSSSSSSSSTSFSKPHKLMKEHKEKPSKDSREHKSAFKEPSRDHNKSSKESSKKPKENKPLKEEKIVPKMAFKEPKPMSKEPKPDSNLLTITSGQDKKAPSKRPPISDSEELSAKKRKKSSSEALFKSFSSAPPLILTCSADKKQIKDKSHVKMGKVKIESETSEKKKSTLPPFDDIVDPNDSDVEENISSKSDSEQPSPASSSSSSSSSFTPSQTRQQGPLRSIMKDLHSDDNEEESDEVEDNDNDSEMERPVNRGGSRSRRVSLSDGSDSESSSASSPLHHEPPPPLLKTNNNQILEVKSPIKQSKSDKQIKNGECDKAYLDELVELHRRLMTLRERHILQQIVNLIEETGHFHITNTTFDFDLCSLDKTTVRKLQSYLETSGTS
rRNA inh HTS: inhibitors of bacterial rRNA selective over humanized ribosomes | E. coli WT GFP vs humanized-ribosome RFP mutants, fluorescence, 24 h; stronger effect = lower value; DMSO median 0, no signal -100 | GFP signal change (wild-type ribosome), % (no concentration beside the values) | 350,000 compounds, 1.6% hits;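 active means significant combined selectivity score with lowered wild-type GFP, culture density cut under 30%, mutant RFP and density less affected; inactive means any of these conditions unmet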; further: one replicate is shown; some compounds called inactive have numbers as strong as hits
ALR H2O2 inh: human ALR oxidase inhibition via reduced H2O2. inhibition, % (test concentration not listed). AID 485317. 290,000 compounds, 3.8% hits. purified ALR, DTT oxidation, H2O2 HRP-luminol luminescence;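 active means mean and each replicate at 75% or more; inconclusive means only one of the two met; inactive means neither met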;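 further: stock transfer was 7.5 nL into about 7.5 µL; 0% = neutral wells and 100% = wells with inactivated enzyme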
Target sequence (P55789 whole entry, looked up): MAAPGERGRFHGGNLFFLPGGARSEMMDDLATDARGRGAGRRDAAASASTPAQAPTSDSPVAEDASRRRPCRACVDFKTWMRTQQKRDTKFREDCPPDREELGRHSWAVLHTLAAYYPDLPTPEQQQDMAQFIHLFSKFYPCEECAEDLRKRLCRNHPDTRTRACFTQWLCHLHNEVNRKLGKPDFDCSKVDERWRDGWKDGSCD
rRNA inh HTS OD600: second read-out of rRNA inh HTS, no call of its own (marks repeat the call); OD600 change, %; measured here: OD600 growth;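 optical density of the mix in the first replicate; 0 = DMSO median and -100 = no signal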
rRNA inh HTS RFP: also measured in rRNA inh HTS; calls as there; RFP signal change, %; measured here: RFP humanized mutant strains;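 first replicate; 0 = DMSO median and -100 = no signal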
Active calls of the source: *; i = inactive; u = inconclusive; x = no result given; & = joins results of further samples. An excerpt (hit frequency here may not be typical).

#	Vif TR-FRET	E coli growth	rRNA inh HTS	HNF4A DNA FP	MLL AF4-AF9 inh	rRNA inh HTS OD600	FGF22 binding	ALR H2O2 inh	rRNA inh HTS RFP	Molecule
1	x	0.718	25.9	-3.3	-4.5	32.1	i	-12.6	1.5	Cc1cc(C)n(S(=O)(=O)c2ccc(C)c(C)c2)n1
2	x	x	-7.4	0.2	-2.3	-5.4	i	x	-0.4	COCCNC(=O)C1(C)CCN(Cc2ccc3ccccc3c2Br)C1 (centres undefined)
3	x	x	-20.2*	2.4	2.5	-4.8*	i	x	6.1*	COC(=O)[C@@H](Cc1c[nH]c2ccccc12)NCc1cccc(B(O)O)c1
4	-5.3%	0.675	x	-1.2	x	x	x	-7.5	x	N#Cc1c(N)nc(-c2ccccc2)nc1-c1ccccc1
5	8.2%	0.676	x	1.0	x	x	x	12.1	x	COc1ccc(-c2nc(SCc3ccccc3)n(S(C)(=O)=O)n2)cc1
6	16.6%	0.691	2.9	1.9	0.6	8.5	i	2.5	-1.2	CC(c1ccccc1)N(C)C(=O)CSc1nnc(C2CC2)n1C1CC1 (centres undefined)
7	1.0%	0.715	x	-0.8	x	x	x	u	x	COc1ccc(N2C(S)=C(C#N)C(=O)NC2c2ccco2)cc1 (centres undefined)
8	u	x	-20.4	3.5	6.9	-22.1	i	-3.6	6.2	O=C(CN(Cc1ccccc1)S(=O)(=O)c1ccccc1)N/N=C/c1ccc2c(c1)OCO2
9	x	x	-2.2	x	0.8	5.6	i	x	-1.8	CN(C)CC(=O)Nc1ccc2c(c1)[C@@H]1C[C@H](CC(=O)NC3CCCC3)O[C@H](CO)[C@@H]1O2
10	x	x	-17.6	-1.5	8.1	-23.1	i	-3.1	-13.8	COc1ccc(OC)c(C2=CC(=O)C[C@H](c3ccc4c(c3)OCO4)C2)c1
11	x	x	0.7	-0.4	7.8	9.5	i	12.4	-0.2	COc1ccc(/C=N/NC(=O)c2cc(-c3cccc(C)c3)nc3ccccc23)cc1O
12	x	x	-3.2	x	18.9	1.7	i	x	-1.5	COc1cccc(S(=O)(=O)N2CC3(CCN(C)CC3)c3c(n(C)c4cc(OC)ccc34)[C@@H]2CO)c1
13	x	0.632	-45.8*	-0.1	-0.6	-32.5*	i	-18.6	-12.5*	CCCc1nc2oc3ccccc3c(=O)c2c(=O)n1-c1ccc(C)cc1
14	-3.6%	0.659	x	4.2	x	x	x	-26.6	x	O=C(Oc1ccc2ccccc2c1Cl)N1CCCC1
15	x	x	2.6	x	3.6	11.6	i	x	-1.3	C[C@H]1CN([C@@H](C)CO)C(=O)c2cc(C#CCN(C)C)cnc2O[C@H]1CN(C)Cc1ccc2c(c1)OCO2
16	-5.4%	x	16.7	-1.1	-7.4	8.0	i	x	-3.1	CC(C)(C)OC(=O)NCCCC[C@H](NC(=O)c1nc[nH]c1C(=O)N[C@@H](CCCCNC(=O)OC(C)(C)C)C(=O)OC(C)(C)C)C(=O)OC(C)(C)C
17	-12.1%	0.69	1.3	1.6	1.7	7.9	i	x	-1.1	COCCCNC(=O)CNC(=O)c1nn(-c2ccc(OC)cc2OC)c(=O)c2ccccc12
18	x	x	0.3	x	-1.9	0.5	i	x	-3.3	CCNC(=O)C[C@H]1CC[C@@H](NC(=O)C2CCC2)[C@H](CO)O1
19	3.0%	0.649	9.8	5.5	0.1	6.8	i	x	-3.3	CCCCN(C(=O)C1CCN(C(=O)c2ccccc2C)CC1)c1c(N)n(CCC)c(=O)[nH]c1=O
20	u	0.729	x	3.2	x	x	x	-3.3	x	O=C(NC1CCCCC1)C(c1ccc(F)cc1)N(Cc1ccco1)C(=O)Cn1nnc2ccccc21 (centres undefined)
21	u	0.717	-4.8	2.2	-0.5	0.8	i	-3.7	0.6	CC(C)CNC(=O)COC(=O)CCC(=O)c1ccc(Cl)cc1
22	x	0.698	10.3	1.4	-0.9	7.5	i	6.2	2.7	CCc1c(C)sc(NC(=S)Nc2nc(C)cc(C)n2)c1C(=O)OC
23	x	x	5.7	x	0.3	8.4	i	x	-2.0	C[C@H](CO)N1C[C@H](C)[C@H](CN(C)Cc2ccccc2C(=O)O)Oc2cc(-c3ccc(C(=O)N(C)C)cc3)ccc2S1(=O)=O
24	0.3%	x	14.3	-2.4	-2.9	3.1	i	-7.7	1.9	O=C(CO/N=C/c1ccc(Cl)cc1Cl)NNC(=O)c1cccc(Cl)c1
25	x	0.654	28.3	-1.2	-5.0	9.5	i	22.7	-2.8	O=C1CNC(=O)/C1=C\c1ccc(O)cc1
26	u	0.645	x	-2.5	x	x	x	5.2	x	Cc1noc(NS(=O)(=O)c2ccc(NC(=O)COc3ccc(Cl)cc3Cl)cc2)c1C
27	x	0.691	2.5	1.1	-1.5	3.3	i	x	-0.3	O=C(Cn1nnc(-c2ccccc2)n1)NNC(=O)c1cccc([N+](=O)[O-])c1
28	25.6%	x	11.6	-1.6	-0.3	5.8	i	-5.6	-0.9	O=C(N/N=C/c1cc2c(cc1[N+](=O)[O-])OCO2)c1cccnc1
29	-6.2%	0.625	3.5	-1.9	x	1.6	i	x	8.1	Cc1ccc(OCC(=O)N(Cc2ccc(N(C)C)cc2)C2CCS(=O)(=O)C2)cc1C (centres undefined)
30	u	0.707	9.9	-0.7	4.4	6.7	i	4.7	5.2	COc1ccc(-n2c(C)cc(/C=C3/SC(=O)N(CC(=O)N4CCOCC4)C3=O)c2C)cc1
31	-3.2%	0.681	7.8	4.3	-5.0	9.5	i	0.3	-4.3	N#Cc1ccccc1OCC(=O)OCC(=O)NC1CCS(=O)(=O)C1 (centres undefined)
32	x	0.763	2.4&17.9	4.4	-2.1&-0.5	18.1&17.9	i	-5.1	2.4&-1.8	C[C@H](CO)N1C[C@H](C)[C@@H](CN(C)C(=O)Nc2ccc3c(c2)OCO3)Oc2ccc(NS(=O)(=O)c3cn(C)cn3)cc2C1=O
33	x	x	-1.2	x	1.0	-1.1	i	x	1.7	CCCC(=O)Nc1ccc2c(c1)C(=O)N(C)C[C@H](OC)[C@@H](C)CN(Cc1ccccn1)[C@@H](C)CO2
34	-14.8%	0.644	x	-1.1	0.5	x	i	-23.9	x	Cc1onc(-c2c(F)cccc2Cl)c1C(=O)OCC(=O)NC(N)=O
35	22.0%	0.685	x	x	x	x	x	-2.3	x	CCC(NC(=O)COc1ccc([N+](=O)[O-])cc1)c1ccccc1 (centres undefined)
36	-3.0%	0.707	-7.7	2.4	-0.6	-6.8	i	0.5	-1.2	Cc1ccc(-n2nnnc2CS(=O)(=O)c2ccccc2)c(C)c1
37	x	x	0.9	x	-2.1	-1.7	i	x	2.6	Cc1ccc(S(=O)(=O)N(C)C[C@@H]2OCCCC[C@H](C)Oc3ccc(NC(=O)Nc4ccc(F)cc4)cc3C(=O)N([C@@H](C)CO)C[C@H]2C)cc1
38	5.3%	0.712	-4.4	-2.7	2.5	-11.1	i	x	0.9	CCN(CC1CCCO1)C(=O)c1cc(COc2ccc(OC)cc2Cl)on1 (centres undefined)
39	-7.7%	0.701	7.6	-4.8	-0.2	5.9	i	10.4	0.8	S=c1[nH]nc(CN2CCCC2)n1Cc1ccccc1
40	x	0.658	-5.7	1.8	-1.8	-13.8	i	-13.8	-0.2	O=C(NCCc1ccc(F)cc1)NC12CC3CC(CC(C3)C1)C2
41	7.2%	0.678	x	-2.5	x	x	x	-11.3	x	OCCn1c(CSc2nc3ccccc3n2CCO)nc2ccccc21
42	x	x	4.4	x	-0.6	6.4	i	x	-2.8	COc1ccc2c3c([nH]c2c1)[C@H](CO)N(C(=O)CN(C)C)CC31CCN(C(=O)c2cccnc2)CC1
43	x	x	3.8	x	-1.7	3.3	i	x	-3.2	C[C@H]1CN([C@@H](C)CO)C(=O)Cc2cc(NC(=O)CCC(F)(F)F)ccc2O[C@@H]1CN(C)Cc1ccncc1
44	x	0.666	x	2.9	x	x	x	0.4	x	Cc1ccc(NC(=O)c2ccc(Cn3cc(Br)cn3)o2)cc1
45	x	0.661	0.5	5.5	0.8	-1.8	i	-7.6	-1.0	Cc1ccc2c(c1)C(c1ccccc1)N(C(=O)c1ccccc1)CC(=O)N2 (centres undefined)
46	8.9%	0.633	20.0	-0.6	-0.9	13.3	i	-12.3	1.6	Cc1ccc([N+](=O)[O-])cc1NC(=O)C[n+]1ccccc1
47	-2.1%	0.624	x	4.3	x	x	x	-14.8	x	O=[N+]([O-])c1cccc(/C=C/c2nc(C=Nc3ccc4ccccc4c3)c(O)o2)c1
48	-0.8%	0.723	2.9	-2.4	-0.8	12.3	i	-9.3	4.5	CCOc1ccc(NC(=O)C2Cc3ccccc3CN2S(=O)(=O)CC)cc1 (centres undefined)
49	-2.9%	0.668	-33.0	1.1	-0.1	-50.0	i	x	-5.6	N#Cc1c(-c2ccccc2)cc(-c2ccccc2)nc1SCCC(=O)O
50	x	0.715	-0.7	-1.1	2.5	3.4	i	-28.8	2.4	Cc1cc(C(=O)NC(C)CCc2ccccc2)ccc1[N+](=O)[O-] (centres undefined)
51	x	x	2.2	x	-2.1	9.6	i	x	-2.8	O=C(C[C@H]1CC[C@@H]2[C@H](COC[C@@H](O)CN2C(=O)C2CC2)O1)NCc1ccncc1
52	x	x	-3.0	x	-0.9	-6.3	i	x	0.3	COC(=O)[C@@H]1[C@@H](CO)[C@@H]2Cn3c(ccc(-c4ccncc4)c3=O)[C@@H]2N1Cc1ccccc1F
53	0.2%	0.754	-8.7	4.5	1.4	-19.4	i	-19.1	-4.3	O=C(NCCc1ccc(Cl)cc1)C1CCC(=O)N1Cc1ccc(F)cc1 (centres undefined)
54	x	0.685	-12.4	1.0	-2.6	-24.7	i	-1.3	0.1	CC(=O)C(Cc1ccccc1)NC(=O)CN(C)Cc1ccccc1Cl (centres undefined)
55	x	0.697	-0.1	-3.3	3.6	1.7	i	0.9	2.7	CN(C(=O)COC(=O)c1cc2c(s1)CCCCC2)C1CCS(=O)(=O)C1 (centres undefined)
56	x	x	-5.5	x	-4.5	-8.2	i	x	-1.7	COc1ccc(NC(=O)N(C)C[C@@H]2OCCCC[C@@H](C)Oc3ccc(NS(=O)(=O)c4ccc(OC)cc4)cc3C(=O)N([C@@H](C)CO)C[C@@H]2C)cc1
57	11.6%	0.709	0.7	1.3	-0.1	0.7	i	10.9	1.4	CC(C)(C)c1nnc(NC(=S)Nc2ccccc2)s1
58	9.2%	0.737	x	1.4	x	x	x	1.4	x	O=C(CNC(=O)c1ccco1)OC(C(=O)c1ccccc1)c1ccccc1 (centres undefined)
59	u	0.675	x	1.0	x	x	x	-10.2	x	COCCN(CCOC)C(=O)c1c[nH]c2ccc(S(=O)(=O)N(C)c3ccc(F)cc3)cc2c1=O
60	x	x	1.8	-0.8	1.8	3.2	i	x	-0.7	CC1(c2nnnn2Cc2ccccc2)CCC(=O)N1CCOc1ccccc1 (centres undefined)

(further entries)
#	Vif TR-FRET	E coli growth	rRNA inh HTS	HNF4A DNA FP	MLL AF4-AF9 inh	rRNA inh HTS OD600	FGF22 binding	ALR H2O2 inh	rRNA inh HTS RFP	Molecule
61	26.9%	0.681	x	1.4	x	x	x	-0.3	x	CNC(=O)c1cc2c(=O)n3cc(C)ccc3nc2n(C(C)C)c1=N
62	16.0%	0.76	x	-1.2	x	x	x	4.4	x	Cc1ccc(Cn2c(N3CCCCCC3)nc3c2c(=O)[nH]c(=O)n3C)cc1
63	-1.3%	0.638	3.7	3.9	-0.1	4.9	i	-5.5	3.1	CC(C)c1ccc(NC(=O)CSc2n[nH]c(=O)n2Cc2ccco2)cc1
64	x	0.689	1.7	1.5	-0.4	7.2	i	x	2.4	CCC(=O)Nc1ccc(NC(=O)CSc2nnc(-c3ccco3)n2C)cc1

Screening results deposited in PubChem by several laboratories.
